Compound activity: PubChem, National Center for Advancing Translational Sciences (NCATS)
TRPML1 agonist – activates the human TRPML1 channel | Q9GZU1 | TRPML1-expressing cells, Ca2+ dye fluorescence, FDSS; host cell line not named in the record; reference of the full effect not given here | activation, % (test concentration not listed) | 410,000 compounds, 0.12% hits | AID 624414; in the data active = activation above about 50%; inconclusive = about 30% to 50%; inactive = below about 30%; further: 0% is about no effect; the text of the record puts the active cut at 80%
Target sequence (Q9GZU1 whole entry, looked up): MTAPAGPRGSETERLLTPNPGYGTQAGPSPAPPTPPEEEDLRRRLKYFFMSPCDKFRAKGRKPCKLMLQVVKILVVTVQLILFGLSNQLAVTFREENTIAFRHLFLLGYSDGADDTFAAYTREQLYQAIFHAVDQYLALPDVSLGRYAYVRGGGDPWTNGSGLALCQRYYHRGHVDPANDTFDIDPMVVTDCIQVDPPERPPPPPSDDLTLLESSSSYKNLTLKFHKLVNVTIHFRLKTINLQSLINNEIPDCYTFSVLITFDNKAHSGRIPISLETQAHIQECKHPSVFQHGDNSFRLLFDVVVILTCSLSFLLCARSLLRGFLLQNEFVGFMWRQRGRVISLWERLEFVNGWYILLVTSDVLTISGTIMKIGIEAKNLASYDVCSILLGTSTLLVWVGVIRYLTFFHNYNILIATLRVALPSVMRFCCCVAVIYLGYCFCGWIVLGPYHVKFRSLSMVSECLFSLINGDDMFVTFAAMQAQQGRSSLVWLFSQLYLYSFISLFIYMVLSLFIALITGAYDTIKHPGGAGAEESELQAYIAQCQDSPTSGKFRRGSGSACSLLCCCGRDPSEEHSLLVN
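In this qHTS format, compounds were pin-transferred onto Ca8-dye-loaded TRPML1-DL cells induced with Tet overnight, and intracellular Ca2+ fluorescence was recorded kinetically for 110 s after a 10 s baseline. A subsequent 4uM final 54-4 (EC80) addition followed by a second 110 s read served as the antagonist phase.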
TRPML1 inh – inhibitors of human TRPML1 channel. Q9GZU1. TRPML1-inducible cells, Ca2+ dye fluorescence, FDSS; active compounds read low; inhibition of EC80 agonist-evoked calcium signal. activity change, negative = inhibition, % (concentration not given with the values). 390,000 compounds, 0.02% hits. AID 624415; in the data active means activity change below about -50%; inconclusive means about -30% to -50%; inactive means above about -30%;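 further: stimulus is agonist 54-4 at its EC80 concentration; on the % scale 0 is the no-effect control and ±100 the full control effect; the text of the record puts the active cut at -80%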
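Tet-induced TRPML1-DL cells loaded with Ca8 no-wash calcium dye were read kinetically on FDSS. Compound addition was followed by EC80 agonist 54-4 (4 uM final); inhibition was read over 110 s.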
ClpP mod – qHTS Assay for Activators of ClpP | ATP-dependent Clp protease proteolytic subunit (Bacillus subtilis (strain 168)), P80244 | purified B. subtilis ClpP, FRET peptide cleavage, 20 min | Potency, µM (top dose mostly 57.5 µM), without a hit: at the highest dose activity change, negative = active | 340,000 compounds, 1.9% hits | AID 651965, 2013; active = well fitted falling curve with a large enough effect; inconclusive = small, poorly fitted or top-dose-only effect; inactive = no such curve, though single readings can be large or run the other way; further: potency means the concentration at half of the fitted maximal effect; the source files actives as falling curves though it sought activators and does not explain the sign; nearly all actives have a fitted effect of over 65% in size; many hits overshoot -100%
Target sequence (P80244 whole entry, looked up): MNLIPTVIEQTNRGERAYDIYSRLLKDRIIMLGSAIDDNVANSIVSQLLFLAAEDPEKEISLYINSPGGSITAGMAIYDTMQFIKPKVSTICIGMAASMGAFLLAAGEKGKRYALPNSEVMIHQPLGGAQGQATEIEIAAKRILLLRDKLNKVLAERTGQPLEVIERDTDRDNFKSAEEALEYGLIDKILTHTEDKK
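Purified B. subtilis ClpP, 10 microg/mL final in Tris/HCl pH8 with KCl, BSA, glycerol and Tween-20, cleaved an Abz/nitrotyrosine-quenched decapeptide. Fluorescence (ex 320, em 430) was read at 0 and 20 min at room temperature. Delta was normalized to 5.8 microM ADEP and DMSO/no-enzyme controls.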
gsp ag – activates gsp, the McCune-Albright syndrome mutation; gsp mutant cells, cAMP HTRF, 30 min; control for the full effect not named in the record; Potency, µM (doses to about 76.9 µM), without a hit: at the highest dose activation (cAMP increase), hits mostly activators; 340,000 compounds, 0.13% hits; AID 624287; active = well fitted activation curve with a large enough effect; inconclusive = small, poorly fitted or top-dose-only effect, or another doubt; inactive = no such curve, though single readings can be large or run the other way; cell line not stated here;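 further: phosphodiesterase inhibitor Ro 20-1724 added with compounds to block cAMP breakdown; potency means the concentration at half of the fitted maximal effect; nearly all actives have a fitted effect of over 60% in size; about a fifth of the inactives were tested at one dose only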
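Cells in DMEM/10% FBS with G418 were pretreated with compounds in DMSO plus […] (300 uM stock) for 30 min at 37C. cAMP was measured by HTRF (cAMP-d2 plus anti-cAMP antibody-K) after 30 min at room temperature.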
Menin MLL FP FL – menin-MLL binding inhibition, fluorescein peptide. AID 1766. 290,000 tested, under 10 active. Fluorescence polarization, fluorescein-MLL peptide displacement from menin. FP activity change, % at 61.4 µM; inconclusive = falling polarisation curve, or a change in total fluorescence; inactive = total fluorescence flat and polarisation flat or rising; no compound was filed as active; the % refers to the polarisation; negative = inhibition;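 further: % of control where 0% means no effect; inhibitors lower the polarisation; unlabelled MLL peptide was the positive control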
gsp antag – antagonists of gsp mutant (McCune-Albright syndrome) | AID 624288 | Potency, µM (doses to about 76.9 µM), for the others: at the top dose activity change, negative = inhibition, actives largely listed as inhibitors | gsp-mutant cells, cAMP HTRF, 30 min; control for the full effect not named in the record | 340,000 compounds, 0.4% hits; active = falling curve of any shape with a large fitted effect; inconclusive = falling curve, mostly with a smaller effect; inactive = flat or rising curve; cell line not stated here;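 further: intracellular cAMP measured with PDE inhibitor Ro 20-1724 present during compound exposure; potency means the concentration at half of the fitted maximal effect; on the % scale 0 is the no-effect control and ±100 the full control effect; nearly all actives have a fitted effect of over 65% in size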
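Cells, 2000/well, grown 16–24 h in DMEM 10% FBS with 0.5 mg/ml G418, then compounds plus […] (300 uM addition stock), 30 min at 37C. cAMP read by HTRF (cAMP-d2 and anti-cAMP antibody-K in lysis buffer) after 30 min RT.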
The depositor's hits bear a star; u = inconclusive; x = not tested or not shown; & = joins results of further samples; [ ] = another dose, or the depositor's remark. The order is random; any-hit rate near 2.1%.

SMILES	TRPML1 agonist	TRPML1 inh	ClpP mod	gsp ag	Menin MLL FP FL	gsp antag
COc1ccc(C(=O)c2c3ccccc3[n+]([O-])n2CCC(N)=O)cc1	-0.4	8	2.7%	-7%	x	-2%
Cc1ccc(S(=O)(=O)N2CCN(C(=O)c3ccccc3)C2)cc1[N+](=O)[O-]	1.3	-8	-1.4%	0%	-5.1	5%
O=C(NCc1n[nH]c(=S)n1-c1ccccc1)c1ccco1	1.1	-3	-1.1%	-2%	4.6	14%
Nc1ccccc1-c1nc2ccccc2s1	1.8	14	x	24%[15.4 µM]	-10	-4%
O=C(Nc1nnc(COc2ccc(Cl)cc2)s1)C1CCCO1 (stereo not drawn)	0.5	5	-1.2%	-38%	-1.2	6%
O=C(O)c1cccc(NC(=S)NC(=O)c2cncc(Br)c2)c1	0.8	8	-15%	u	x	-6%
CS(=O)(=O)c1ccc(-c2cccc(NC(=O)c3ccco3)c2)nn1	-0.1	-18	2.5%	10%	x	-6%
CCOC(=O)C(C#N)c1ccccn1 (stereo not drawn)	0.1	-14	-3.1%	-19%	-1.5	7%
Cc1ncc([N+](=O)[O-])n1Cc1ccc(Br)cc1	1.2	11	-0.2%	38%	-2.8	6%
OC(COc1ccc2ccccc2c1)CN1CCOCC1 (stereo not drawn)	0.3&-0.4	28&2	0.3%&-0.8%	-33%&-15%[inhibitor]	-2.4	16%&11%
CCCNS(=O)(=O)c1cc(-c2nnc3c4ccccc4c(C)nn23)ccc1OC	0.1	0	-19%	x	x	x
Cc1ccc(-n2c(=O)c3c(cnn3C)n(CC(=O)Nc3cccc(Cl)c3)c2=O)cc1	-0.1	17	-2.5%	x	x	x
O=C(NC1CCCC1)c1c(O)nc2sccn2c1=O	2.0	5	1.2%	6%[15.4 µM]	x	-6%
CCCOC1CCCN(C(=O)c2ccc(OC3CCN(C(=O)CCOC)CC3)cc2)C1 (stereo not drawn)	0.8	0	-2.0%	11%	x	6%
CCOc1ccc(Br)cc1C(=O)N/N=C/c1cccnc1	-0.5	4	-3.7%	-3%	0.4	-2%
C/C(C=O)=C/c1ccccc1	0.5	-11	-7.3%	x	x	-5%
Cc1ccc(NC(=O)C(C)n2nnc3sc4c(c3c2=O)CCCC4)cc1Cl (stereo not drawn)	1.7	7	1.3%	x	x	x
COC(=O)c1ccc(NC(=O)NCCCl)cc1	0.5	-24	x	11%	-4.0	8%
COc1ccc(NC(=O)C2CCCN(CCCc3ccccc3)C2)cc1OCC(C)C (stereo not drawn)	x	x	-1.8%	14%	-4.6	-6%
CCOC(=O)C1(C)CCN1C(=O)c1csnn1 (stereo not drawn)	-0.1	33	1.6%	x	x	x
CC1(C)OC2OC(COC(=O)c3ccc([N+](=O)[O-])cc3)C3OC(C)(C)OC3C2O1 (stereo not drawn)	0.9	19	0.9%	-13%	0.8	1%
CS(=O)(=O)c1nc(S(=O)(=O)c2ccc(Cl)cc2)c(N2CCCCC2)s1	0.8	17	-0.5%	-2%	x	-10%
CCOC(=O)Cc1nnc2c(Nc3ccc(Cl)cc3)nc3nonc3n12	0.4	-16	-0.3%	6%	-0.3	35µM*
CC1(c2ccc3ccccc3c2)NC(=O)N(CC(=O)N2CCN(S(=O)(=O)c3ccccc3F)CC2)C1=O (stereo not drawn)	-0.1	2	1.3%	7%	x	-5%
CC1c2ccccc2N(S(=O)(=O)c2ccccc2)C1C (stereo not drawn)	1.0	1	x	0%	x	-9%
Cc1ccc(C)c(N2CCN(c3ccc(NC(=O)c4cccs4)cc3C(=O)O)CC2)c1	-0.9	17	1.3%	x	x	x
Cc1ccc(S(=O)(=O)/N=C2\C=C(NS(=O)(=O)c3ccccc3)C(=O)c3ccccc32)c(C)c1	7.2	15	x	-6%[15.4 µM]	x	-3%
COc1ccccc1C(CNC(=O)c1ccc(-c2ccccc2Cl)o1)N1CCCC1 (stereo not drawn)	13	6	x	-8%[15.4 µM]	x	-2%
COc1ccc(Nc2oc(COc3ccc(Cl)cc3)nc2C#N)cc1	-0.5	5	0.3%	-17%	-2.4	-1%
COc1cccc(-c2c(C(=O)N/N=C(\C)c3cccnc3)nnn2-c2nonc2N)c1	-0.1	27	1.4%	3%	-2.3	-5%
O=C(CSc1nc2ccc([N+](=O)[O-])cc2s1)c1ccc2ccccc2c1	4.3	-11	-0.6%	-1%	1.9	5%
CC(=O)Cc1ccccc1OCC(=O)O	-0.3	1	0.6%	u	1.9	0%
Cc1ccc(OCc2nnc(SCC(=O)Nc3cccc4ccccc34)n2-c2ccccc2)cc1	2.8	18	-2.9%	-19%	-3.6	-5%
COc1ccc(CNC(=O)C2CCN(S(=O)(=O)c3cccc4nonc34)CC2)cc1	-0.4	-3	x	-1%	-0.1	2%
Cc1ccccc1Cn1ccc(NC(=O)c2cnn3cccnc23)n1	0.4	4	0.1%	-16%	0.0	1%
CC(=O)c1ccc(NC(=O)CCCN2C(=O)C(c3ccccc3)Oc3cccnc32)cc1 (stereo not drawn)	2.5	31	-1.7%	-3%	-1.1	-30%
CC(=Nc1ccccc1)C1=C(O)CC(C)(C)CC1=O	-0.5	8	x	15%[15.4 µM]	0.4	11%
CC(C)(C)NC(=O)C(=O)N/N=C/c1ccc(F)cc1	0.3	4	x	-4%[15.4 µM]	-0.7	2%
Nc1cc(N)nc(SCC(=O)NC2CCCCCCC2)n1	-0.2	11	-4.1%	1%	x	4%
CCCc1cc(C(=O)Nc2ccc(C(=O)c3ccc(F)cc3)cc2)n(C)n1	0.3	-1	-2.2%	21%	-8.1	35µM*
COC(=O)C1=NNC2C(=O)N(C3CCCCC3)C(=O)C12 (stereo not drawn)	0.0	17	0.9%	11%	-1.8	21%
Cc1ccc(-c2c(C)n3c4c(=O)n(C)c(=O)n(C)c4nc3n2-c2cccc(O)c2)cc1	0.7	6	-14%	x	x	x
COc1cc(C2NC(=O)N(C)C3=C2C(=O)CCC3)cc(OC)c1OC (stereo not drawn)	0.4	-29	0.6%	6%	-0.5	-8%
CCc1cc(=O)[nH]c(SCc2nc(-c3ccccc3)no2)n1	2.2	18	-0.5%	x	x	x
COc1ccc(OCC(O)CON2C(=O)c3ccccc3C2=O)cc1 (stereo not drawn)	-0.9	5	-4.1%	17%	0.3	-8%
CCOC(=O)C1CCN(C(c2cccc(F)c2)c2c(O)cc(C)n(CCOC)c2=O)CC1 (stereo not drawn)	1.8	-1	2.1%	x	x	x
CCOC(=O)c1c(NC(=O)CSc2nnc(-c3ccc(OC)cc3)o2)sc2c1CCC2	2.5	0	-0.6%	-7%	x	-16%
CN(C)c1nc(N/N=C/c2ccccc2O)nc(Nc2ccc(F)cc2)n1	0.6	-10	x	-17%	-0.4	u
COc1ccccc1N=C1NC(=O)/C(=C/c2ccc(N(C)C)cc2)S1	15	1	0.8%	1%	u	-10%
CCN(CC)c1ccc(NC(=O)c2cc3c(OC)cccc3[nH]2)cc1	1.3	18	-7.7%	4%[15.4 µM]	-4.2	-16%
COC(CNC(=O)c1coc2nc3ccccc3nc12)OC	0.5	6	4.1%	1%	u	-9%
O=C(CCNc1ccc(Cc2ccncc2)cc1)c1cccc([N+](=O)[O-])c1	-0.3	-19	x	-22%[15.4 µM]	-0.3	-5%
COc1ccccc1N=c1oc2c(OC)cccc2cc1C(=O)NCc1ccco1	-1.4	-4	0.0%	-2%	0.3	-4%
Cc1cc(Br)ccc1OCC(=O)N1CCCCCC1	0.2	3	0.0%	-24%	8.2	-16%
O=C(O)C1CCN(S(=O)(=O)c2cccc3cccnc23)CC1	-0.3	12	x	-13%[15.4 µM]	-3.5	7%
N=c1c2c(n(Cc3ccc(F)cc3)c3c1CCC3)CCC2	-0.2	-8	-4.7%	10%	-5.6	1%
O=C(c1cccc(F)c1)N1CCN(Cc2ccco2)CC1	-0.7	-2	-2.2%	-14%	0.4	11%
O=C1CC(c2ccc(F)cc2)CC2=C1C=Nc1ccccc1N2 (stereo not drawn)	-0.8	-1	x	-9%[15.4 µM]	-1.1	3%
CC(=O)/C(=N/Nc1ccccc1[N+](=O)[O-])N1CCCc2ccccc21	4.4	55	x	24%[15.4 µM]	-0.1	-14%
CCOc1ccc(NC(=S)NN2C(C)CCCC2C)cc1 (stereo not drawn)	-0.4	7	-4.2%	-11%	3.2	-3%

New compounds follow:
SMILES	TRPML1 agonist	TRPML1 inh	ClpP mod	gsp ag	Menin MLL FP FL	gsp antag
CC(C)(C)NC(=O)NC(=O)CN1CCCCC1	0.2	24	x	8%[15.4 µM]	3.5	x
CC(=O)NC1=NN(C(C)=O)C(C)(c2ccc(Cl)s2)S1 (stereo not drawn)	0.1	-20	2.9%	21%	0.4	0%
Cc1cc(C(=O)Cn2cncn2)c(C)n1CCc1ccc(F)cc1	0.5	2	-0.9%	-3%	2.3	-8%
CCCN(C(=O)Cn1nc(Cc2cccnc2)c2ccccc2c1=O)c1ccc(C(C)C)cc1	-0.7	-24	-1.8%	x	x	x
O=c1c2ccccc2nc(-c2ccc(Cl)cc2)n1CCCOc1ccccc1F	0.1	1	0.4%	x	x	x
Cc1cc(OCc2nnc(SCC(=O)O)n2-c2ccccc2)ccc1Cl	-0.5	-7	x	-35%[inhibitor]	5.6	-2%
CCOc1ccc(N(CC(=O)NC2CCCC2)C(=O)c2ccc(C)s2)cc1	-0.5	18	-0.1%	-5%[15.4 µM]	-3.0	-6%
CCCCNC(=O)CSc1nc2ccsc2c(=O)n1C1CCN(C(=O)OCC)CC1	-0.2	-9	-2.4%	u	-3.0	-14%
C[C@@H]1CCCCO[C@H](CN(C)S(=O)(=O)c2cn(C)cn2)[C@H](C)CN([C@@H](C)CO)C(=O)c2cc(NC(=O)c3ccccc3)ccc2O1	1.4	-11	0.7%	-37%[inhibitor]	x	x
O=C(c1cccc(S(=O)(=O)NCc2ccccc2)c1)N1CCN(c2ccccc2)CC1	1.4	1	-1.2%	1%	x	-3%
Cc1ccc(O)c(NC(=O)c2noc3c2CCc2ccccc2-3)c1	0.8	-24	x	u	1.3	8%
Cc1ccc(OCCC(=O)Nc2c(C)n(C)n(-c3ccccc3)c2=O)cc1	-0.8	-3	1.8%	4%	-3.2	-3%
CC1Cc2nc(SCC(=O)N3CCOCC3)n(C)c(=O)c2S1 (stereo not drawn)	-0.4	-5	-3.0%	13%[15.4 µM]	x	0%
O=[N+]([O-])c1cc(-c2csc(NCCc3nc4cc(Cl)c(Cl)cc4n3CCCO)n2)ccc1Cl	-0.8	3	0.6%	-9%	x	-16%
